Rango release inh: prevents RanGTP from dissociating the Rango-importin beta complex; hit rate 0.071% among 340,000; Biochemical FRET Rango-importin beta, RanGTP-induced dissociation; Potency, µM (doses to about 46.1 µM), without a hit: at the top dose activity change, negative = inhibition; O95149+P62826; active means falling FRET ratio curve, often poorly fitted, with flat reads before Ran was added; inconclusive means other falling curves, or compound fluorescence or quenching; inactive means flat or rising ratio curve;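 note: potency is the fitted concentration of half-maximal effect; % of control where 0% means no effect; nearly all actives have a fitted effect of over 45% in size; -100% = wells without RanGTP and RCC1; the record marks most hits as doubtful in a second field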
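Rango FRET biosensor (snurportin-1 IBB flanked by N-terminal EYFP and C-terminal CFP10) at 0.1 uM, with 0.25 uM importin beta in PBS, 1mM DTT, 0.02% Tween-20, 0.1% BSA. 0.6 uM Ran, 2mM GTP and 0.2 uM RCC1 were then added for 45 min at room temperature. Inhibition read as loss of FRET rise.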
GLA inh pH 4.5: inhibitors of human alpha-galactosidase A at pH 4.5; purified enzyme, 4-MU-alpha-Gal fluorescence, pH 4.5; activity change, negative = inhibition, % at 105 µM; 230,000 tested, under 10 active; inconclusive = small, poorly fitted or top-dose-only inhibition, or a rising curve; inactive = flat fitted curve, though single readings scatter; no compound was filed as active;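 note: 0% = full activity with enzyme and -100% = basal without enzyme; dose as in the result columns while the protocol names 77 µM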
Rango-impB inh: inhibitors of Rango-importin beta complex formation; Rango CFP/YFP FRET sensor + importin beta, 45 min; Potency, µM (series often up to 92.2 µM), without a hit: at the top dose inhibition of complex formation; hit rate 0.031% among 340,000; AID 540263; active = rising FRET ratio curve, often small or poorly fitted; inconclusive = mostly compound fluorescence or quenching in the first reads; inactive = flat curves in all reads;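 note: potency is the fitted concentration of half-maximal effect; 0% = DMSO wells and 100% = buffer wells lacking importin beta; nearly all actives have a fitted effect of over 15% in size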
Target sequence (Q14974 whole entry, looked up): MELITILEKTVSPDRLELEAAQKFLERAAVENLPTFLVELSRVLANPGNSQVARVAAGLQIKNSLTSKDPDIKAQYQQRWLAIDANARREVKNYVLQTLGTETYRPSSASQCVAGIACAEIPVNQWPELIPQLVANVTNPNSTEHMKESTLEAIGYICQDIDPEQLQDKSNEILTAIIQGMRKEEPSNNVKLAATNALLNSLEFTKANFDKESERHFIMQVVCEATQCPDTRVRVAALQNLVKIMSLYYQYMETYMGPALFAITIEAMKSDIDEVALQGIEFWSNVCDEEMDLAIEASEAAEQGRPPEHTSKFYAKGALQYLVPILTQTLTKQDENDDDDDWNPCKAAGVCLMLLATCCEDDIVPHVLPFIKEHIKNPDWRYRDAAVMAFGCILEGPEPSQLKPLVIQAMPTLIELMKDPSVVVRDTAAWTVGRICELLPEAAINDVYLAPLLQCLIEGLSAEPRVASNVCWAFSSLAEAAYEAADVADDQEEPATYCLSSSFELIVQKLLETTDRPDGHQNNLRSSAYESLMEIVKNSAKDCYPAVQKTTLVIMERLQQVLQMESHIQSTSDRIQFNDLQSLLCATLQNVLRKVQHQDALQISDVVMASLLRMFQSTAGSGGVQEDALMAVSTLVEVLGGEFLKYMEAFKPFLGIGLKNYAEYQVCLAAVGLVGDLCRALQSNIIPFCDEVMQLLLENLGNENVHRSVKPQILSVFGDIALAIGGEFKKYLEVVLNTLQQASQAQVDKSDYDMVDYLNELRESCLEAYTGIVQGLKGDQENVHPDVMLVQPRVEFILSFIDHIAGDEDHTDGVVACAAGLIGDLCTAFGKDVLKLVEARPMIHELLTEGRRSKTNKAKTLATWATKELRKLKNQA
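FRET biosensor (snurportin 1 IBB flanked by EYFP and cerulean), 50 nM, with compound 5 min, then 0.125 microM importin beta in PBS, 1 mM DTT, 0.02% Tween-20, 0.1% BSA. CFP/YFP ratio read after 45 min at room temperature; pre-read flags interference.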
miR-21 FLuc: raises the signal of a miR-21 reporter | HeLa miR-21 FLuc reporter, luciferase, 48 h | Potency, µM (doses to about 38.3 µM), for the others: top-dose reporter change, positive = more light | 340,000 tested, under 10 active; active = well fitted rising curve with a large enough effect; inconclusive = small, poorly fitted or top-dose-only effect; inactive = no such curve, though single readings can be large or run the other way;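 note: % of control where 0% means no effect; miR-21 action dims this reporter so a rising signal means less miR-21 action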
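Luminescence from a firefly luciferase reporter carrying a miR-21 binding site downstream, stably expressed under a CMV promoter in HeLa cells that make miR-21 endogenously, reports miRNA modulation after 48 h compound exposure up to approximately 40uM final.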
The depositor's hits bear a star; ? = inconclusive; . = no result given; & = joins results of further samples. This is a subset (hit frequency here may not be typical).

SMILES | Rango release inh | GLA inh pH 4.5 | Rango-impB inh | miR-21 FLuc
O=C(CN1CC(c2ccccc2)CC1=O)NCc1ccc(F)cc1 (configuration not stated) | 2% | -13 | -4.9% | -12%
COc1cc(O)cc2c1C(=O)O[C@@H](C)CCCC(=O)CCCCC2 | 16% | . | 0.9% | 2%
O=C1NC(=S)N(c2ccccc2)C(=O)C1C(c1ccncc1)C1C(=O)NC(=S)N(c2ccccc2)C1=O (configuration not stated) | -17% | -2 | 1.1% | 0%
N=C1c2ccccc2CN1c1cccc([N+](=O)[O-])c1 | 11% | -4 | 2.8% | -8%
Cc1cc(C(=O)CN2CCCC2)c(C)n1-c1ccc(F)cc1 | -17% | 10 | -2.2% | -3%
Cc1cc(O)c2c(c1)C(=O)C13C(=C2O)C(=O)[C@H]2[C@@H](O)[C@@H]1[C@H]1[C@H](O)[C@@H]3C(=O)C3=C(O)c4c(O)cc(C)cc4C(=O)C312 (some centres not stated) | ? | . | ? | .
CC(C)(C)P(=O)(c1ccncc1)N1CCCC1 (configuration not stated) | 16% | -4 | 0.9% | -4%
CSc1nc(Cl)c(Br)c(N2CC2)n1 | 11% | . | 0.0% | .
O=C(c1cc(-c2cccnc2)nc2ccccc12)N1CCC2(CC1)OCCO2 | 0% | -8 | -0.9% | -1%
COc1ccc(-n2c(O)c(C(C)=NCc3ccco3)c(=O)[nH]c2=O)cc1 | -10% | -16 | -1.8% | -9%
CCOC(=O)C(O)(c1ccc(N)c(OC)c1)C(F)(F)F (configuration not stated) | 1% | -7 | ? | 0%
CN1CCN(c2c(F)cc([N+](=O)[O-])c(N)c2Br)CC1 | -9% | -9 | -4.2% | -7%
CCOc1ccccc1CN1CCCC(C(=O)c2cc(F)ccc2F)C1 (configuration not stated) | -1% | . | -4.6% | 5%
CC1([N+](=O)[O-])COP(=O)(Nc2ccccc2F)OC1 (configuration not stated) | 1% | . | -1.6% | .
O=C(c1cc(-c2ccncc2)nc2ccccc12)N1CCC2(CC1)OCCO2 | -2% | -11 | -0.2% | -3%
CC(C)(C)N1CC(C(=O)c2ccccc2)C1c1ccccc1 (configuration not stated) | -15% | . | -0.7% | .
O=[N+]([O-])/C=C1\NCCN1Cc1ccc(Cl)nc1 | 2%&-7% | 0&5 | ? | 5%&0%
COc1ccc(N2C(=O)NC(=O)/C(=C\c3ccc([N+](=O)[O-])s3)C2=O)cc1 | ? | -1 | ? | -1%
Cc1ccccc1-n1c(C)nc2sccc2c1=O | 1% | 0 | -6.2% | -17%
CN1CCN(c2ccc([N+](=O)[O-])cc2Cl)CC1 | 4% | 6 | 2.5% | -2%
Fc1ccc(NC2=NCCS2)cc1Cl | -3% | 1 | -3.2% | -13%
CCC(=O)Nc1ccccc1 | 1% | . | -0.3% | 1%
Clc1cccc(Cl)c1CN1CCN(c2ccccc2)CC1 | -7% | 1 | 2.0% | -17%
COC(=O)CC1(CC(=O)OC)C(=O)NC(=O)NC1=O | -10% | 5 | 1.4% | 1%
Cc1n[nH]c(C)c1CCN | -9% | 0 | 2.7% | 0%
CCOP(=O)(OCC)C(CC)N1CCOCC1 (configuration not stated) | -7% | -2 | 3.7% | -2%
COc1ccc(S(=O)(=O)Cc2ccc(C(=O)N3CCC4(CC3)OCCO4)o2)cc1 | -6% | -8 | 0.0% | 3%
Cc1cc(O)c2c(C)c(CC(=O)N3C[C@H]4C[C@@H](C3)c3cccc(=O)n3C4)c(=O)oc2c1 | -3% | . | ? | 0%
CC1C(=O)OC2CCN3CC4OC4(COC(=O)C(C)(O)C1(C)O)C23 (configuration not stated) | -4% | . | 2.0% | .
O=C1NC(=O)N(c2ccccc2)C(=O)/C1=C\c1ccccc1[N+](=O)[O-] | -15% | -2 | -1.2% | -5%
CCC(=O)c1ccc(OCC(=O)N2CCN(CC(=O)Nc3ccc(C)cc3)CC2)cc1 | 2% | . | -3.1% | .
CCOc1ccc(N=Cc2c(O)n(-c3cc(C)cc(C)c3)c(=O)[nH]c2=O)cc1 | 1% | -3 | -2.0% | -1%
O=C(O)c1cccc2c1NC(C(=O)O)C1CC(Sc3ccccc3[N+](=O)[O-])C(Cl)C21 (configuration not stated) | -5% | 5 | ? | 14%
CN1C(=O)COc2c(C(=O)NC3CN4CCC3CC4)cc(Cl)cc21 (configuration not stated) | . | 0 | . | -14%
C[C@]12CCC3C(CC[C@H]4C[C@@H](O)CC[C@]34C)C1CC[C@@H]2N (some centres not stated) | -6% | . | 1.2% | .
COc1cc(CN2CCN(C(=O)Cc3ccccc3)CC2)cc(OC)c1OC | 6% | . | -2.1% | 0%
O=c1[nH]c2ccccc2c(=O)n1-c1ccc(Cl)cc1Cl | 10% | 7 | -2.4% | 10%
CCCCC(=O)N/N=C/c1c(O)n(CCC2=CCCCC2)c(=O)[nH]c1=O | 17% | -2 | 1.1% | 25%
CCOC(=O)[C@@]1(C#N)[C@@H]2C=CC(C(N)=O)=CN2[C@@H](C(N)=O)[C@@H]1c1cccc(Cl)c1 | ? | -3 | ? | -2%
CC(=NCc1ccco1)c1c(O)n(-c2ccc(Cl)cc2)c(=O)[nH]c1=O | -5% | 6 | -2.1% | -2%
O=C(C[N+]12CCN(CC1)CC2)NCCc1ccc(Cl)cc1Cl | -6% | 8 | 3.5% | -1%
CCOC(=O)C(NC(=O)CC)(Nc1ccc(C(O)(C(=O)OCC)C(F)(F)F)cc1C)C(F)(F)F (configuration not stated) | 12% | 3 | 0.4% | -12%
NC(=O)c1c(Br)n(C2OC(CO)C(O)C2O)c2ncnc(N)c12 (configuration not stated) | 2% | . | -3.0% | .
C[N+]12CCC(CC1)C(C(O)(c1ccccc1)c1cccs1)C2 (configuration not stated) | ? | 1 | -3.7% | 1%
COc1ccc(CCNC(C)CCc2ccc(OC)cc2)cc1 (configuration not stated) | 0% | 0 | -0.3% | -12%
CCCCn1c(NS(=O)(=O)c2ccc(C)cc2)c(C(=O)OCC)c2nc3ccccc3nc21 | ? | 2 | ? | -6%
Cc1sc2ncn(CC(=O)NCC(=O)N3CCC4(CC3)OCCO4)c(=O)c2c1C | -1% | 4 | 2.1% | -4%
O/N=C1/C(=C\c2ccccc2)N2CCC1CC2 | 0% | -4 | -0.3% | -1%
Cc1cc(OCC(=O)NCC(O)c2ccccc2)c2c3c(c(=O)oc2c1)CCCC3 (configuration not stated) | 0% | . | -0.9% | -4%
Nc1c(Br)cc([N+](=O)[O-])cc1[N+](=O)[O-] | -1% | . | -0.3% | .
O=P(CN1CCN(c2ccccc2)CC1)(N1CCCCC1)N1CCCCC1 | 29% | 5 | 4.5% | -1%
Cc1cc(OC(=O)CCCNC(=O)OC(C)(C)C)c2c3c(c(=O)oc2c1)CCC3 | -14% | 6 | -0.4% | -4%
Cc1ccc(-n2c(O)c(C=Nc3ccc(S(=O)(=O)N(C)C)cc3)c(=O)[nH]c2=O)cc1 | -2% | -4 | -2.2% | -4%
CC(C)NCC(O)c1ccc(C2CCCC2)cc1 (configuration not stated) | 10% | -3 | -1.7% | -8%
Cc1ccccc1NS(=O)(=O)c1ccc(OCC(=O)N2CCN(C)CC2)cc1 | 1% | . | 1.2% | -4%
CCCNc1nc(OC)nc(N2CC3CC(C2)c2cccc(=O)n2C3)n1 (configuration not stated) | -2% | 4 | 0.5% | 3%
Cc1ccc(CN2CCCN(Cc3ccc(C)cc3)S2(=O)=O)cc1 | -2% | . | -0.4% | -9%
CCCCn1c(O)c(C(CC)=NCCCn2ccnc2)c(=O)[nH]c1=O | -4% | 0 | -0.3% | -3%
Cc1cc(Br)c(NC(=O)CN2CC=C(c3ccccc3)CC2)c(Br)c1 | -9% | -5 | -2.1% | -17%
CCC(CC)C1C(C#N)=C(N)Oc2c1c(=O)oc1ccccc21 (configuration not stated) | 11% | -5 | 1.5% | 6%

Compound profiles, from the list above. Order of values: Rango release inh | GLA inh pH 4.5 | Rango-impB inh | miR-21 FLuc
Listed for Cc1ccc(-n2c(O)c(C=Nc3ccc(S(=O)(=O)N(C)C)cc3)c(=O)[nH]c2=O)cc1 → -2% | -4 | -2.2% | -4%
Listed for CC(C)NCC(O)c1ccc(C2CCCC2)cc1 (configuration not stated) → 10% | -3 | -1.7% | -8%
Listed for CCCCn1c(O)c(C(CC)=NCCCn2ccnc2)c(=O)[nH]c1=O → -4% | 0 | -0.3% | -3%

(continued)
SMILES | Rango release inh | GLA inh pH 4.5 | Rango-impB inh | miR-21 FLuc
CCCCn1c(=O)c(C(=O)NCc2ccccc2OC)c(O)c2ccccc21 | 19% | . | -3.4% | -1%
Cc1ccc2c(c1)NP(=S)(Oc1ccccc1)N2 (configuration not stated) | 7% | . | -0.8% | .
COc1ccc(OC(=O)Nc2ccccc2)cc1 | 12% | 5 | 4.8% | -52%
CCc1c(C)nc(N)nc1N1N=C1SC | 4% | -2 | -1.1% | 0%
CCC(CO)(C(=O)OC1C[N+]2(C)CCC1CC2)c1ccccc1 (configuration not stated) | -20% | 2 | -0.4% | 0%
CC(C)(C)n1cc(C(=O)c2ccccc2)cc1-c1ccccc1 | -18% | 0 | 0.9% | -11%
CCCN1CCCC(C(=O)c2cc(C)c(OC)c(C)c2)C1 (configuration not stated) | 13% | . | 0.0% | 0%
Cc1ccc(Cn2cc(C=O)c3ccccc32)cc1 | 7% | . | ? | 13%
O=c1[nH]c(=O)n(Cc2ccccc2Cl)c(O)c1/C=C1/C=CC=N1 | -10% | -5 | ? | 25%
Cc1ccc(OP(=O)(NCc2ccccc2)Oc2ccc(C)cc2)cc1 | 11% | -17 | 0.0% | 0%
CN1CN(c2ccccc2)C2(CCN(CCCSc3ccccc3NC(=O)/C=C/c3ccccc3)CC2)C1=O | 12% | . | 8.3% | .
C/C=C1\CN2[C@H]3C[C@@]45c6ccccc6N(C)[C@H]4[C@@H]2CC1C3[C@H]5O (some centres not stated) | 3% | . | 1.6% | .

In the list so far, these contain bromine:
SMILES | Rango release inh | GLA inh pH 4.5 | Rango-impB inh | miR-21 FLuc
CSc1nc(Cl)c(Br)c(N2CC2)n1 | 11% | . | 0.0% | .
CN1CCN(c2c(F)cc([N+](=O)[O-])c(N)c2Br)CC1 | -9% | -9 | -4.2% | -7%
NC(=O)c1c(Br)n(C2OC(CO)C(O)C2O)c2ncnc(N)c12 (configuration not stated) | 2% | . | -3.0% | .
Nc1c(Br)cc([N+](=O)[O-])cc1[N+](=O)[O-] | -1% | . | -0.3% | .
Cc1cc(Br)c(NC(=O)CN2CC=C(c3ccccc3)CC2)c(Br)c1 | -9% | -5 | -2.1% | -17%

Going on with the list:
SMILES | Rango release inh | GLA inh pH 4.5 | Rango-impB inh | miR-21 FLuc
CC(C(O)c1ccccc1)N(C)CCn1cnc2c1c(=O)n(C)c(=O)n2C (configuration not stated) | 5% | -4 | -3.3% | 0%
CCCCCCCCn1sccc1=O | 13% | . | 0.7% | .
CCCNC(=O)N1[C@H]2CC[C@@H]1C(C(=O)OC)=C(c1ccc(OC(F)(F)F)cc1)C2 | 0% | . | 0.2% | .
Cn1c(O)c(C=NCCN2CCN(C(=O)c3ccccc3)CC2)c(=O)n(C)c1=O | -4% | 2 | -4.5% | 3%
CC1C(OC(=O)CCC(=O)NC(C)(C)CO)O[C@H]2OC3(C)CC[C@H]4[C@H](C)CCC1C24OO3 (some centres not stated) | 16% | . | 0.3% | ?
CCCCNC(=S)N1CCn2cccc2C1c1cccnc1 (configuration not stated) | 7% | 5 | -0.1% | 0%
CCC1(Oc2ccccc2)C(=O)NC(=O)NC1=O | -2% | . | -1.2% | .
O=C(O)C1=CC2c3ccccc3C1c1ccccc12 | 0% | . | -0.7% | -2%
CC1CCN(CC(=O)c2ccc3c(c2)OCCO3)CC1 | 6% | -1 | 2.5% | -21%
Cc1ccc(S(=O)(=O)CC(C)(O)C(=O)Nc2cccc(C(F)(F)F)c2)cc1 (configuration not stated) | 12% | 5 | 2.0% | 1%
CN1C(=O)C(c2ccc([N+](=O)[O-])cc2[N+](=O)[O-])C(=O)N(C)C1=O | -7% | . | 0.0% | 8%
NC(N)=Nc1ccc2[nH]c3c(c2c1)C[C@@]1(O)[C@H]2Cc4ccc(O)c5c4[C@@]1(CCN2CC1CC1)C3O5 (some centres not stated) | 0% | . | -0.1% | .
